miR-21 FLuc = qHTS Assay for Modulators of miRNAs and/orActivators of miR-21; HeLa miR-21 FLuc reporter, luciferase, 48 h; Potency, µM (highest dose often 38.3 µM), without a hit: at the highest dose reporter change, positive = more light; 340,000 tested, under 10 active; active = well fitted rising curve with a large enough effect; inconclusive = small, poorly fitted or top-dose-only effect; inactive = no such curve, though single readings can be large or run the other way;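 further: % of control where 0% means no effect; miR-21 action dims this reporter so a rising signal means less miR-21 action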
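Using DMEM plus 10% FBS, HeLa miR-21-FLuc cells are incubated with test compounds (final up to about 40uM) for 48 hours; firefly luciferase signal is then imaged following reagent-mediated lysis.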
Rango release inh = qHTS Assay for Inhibitors of RanGTP induced Rango (Ran-regulated importin-beta cargo) - Importin beta complex dissociation; Snurportin-1 (Homo sapiens) + GTP-binding nuclear protein Ran (Homo sapiens) + Importin …; Biochemical FRET Rango-importin beta, RanGTP-induced dissociation; Potency, µM (highest dose often 46.1 µM), without a hit: top-dose activity change, negative = inhibition; hit rate 0.071% among 340,000; AID 540253, 2011; active means falling FRET ratio curve, often poorly fitted, with flat reads before Ran was added; inconclusive means other falling curves, or compound fluorescence or quenching; inactive means flat or rising ratio curve;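 further: potency means the concentration at half of the fitted maximal effect; % of control where 0% means no effect; nearly all actives have a fitted effect of over 45% in size; -100% = wells without RanGTP and RCC1; the record marks most hits as doubtful in a second field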
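Recombinant Rango FRET biosensor (EYFP–snurportin 1 IBB–cerulean CFP10) at 0.1 uM premixed with 0.25 uM importin beta in PBS, 1 mM DTT, 0.02% Tween-20, 0.1% BSA. Compound added 5 min; RanGTP-RCC1 (0.6 uM Ran, 2 mM GTP, 0.2 uM RCC1) then triggers release, read at 45 min.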
GLA inh pH 4.5 = qHTS Assay for Inhibitors of Human alpha-Galactosidase at pH 4.5; Alpha-galactosidase A (Homo sapiens), P06280; purified enzyme, 4-MU-alpha-Gal fluorescence, pH 4.5; activity change, negative = inhibition, % at 105 µM; 230,000 tested, under 10 active; AID 1467, 2008; inconclusive = small, poorly fitted or top-dose-only inhibition, or a rising curve; inactive = flat fitted curve, though single readings scatter; no compound was filed as active;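 further: 0% = full activity with enzyme and -100% = basal without enzyme; dose as in the result columns while the protocol names 77 µM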
Target sequence (P06280 whole entry, looked up): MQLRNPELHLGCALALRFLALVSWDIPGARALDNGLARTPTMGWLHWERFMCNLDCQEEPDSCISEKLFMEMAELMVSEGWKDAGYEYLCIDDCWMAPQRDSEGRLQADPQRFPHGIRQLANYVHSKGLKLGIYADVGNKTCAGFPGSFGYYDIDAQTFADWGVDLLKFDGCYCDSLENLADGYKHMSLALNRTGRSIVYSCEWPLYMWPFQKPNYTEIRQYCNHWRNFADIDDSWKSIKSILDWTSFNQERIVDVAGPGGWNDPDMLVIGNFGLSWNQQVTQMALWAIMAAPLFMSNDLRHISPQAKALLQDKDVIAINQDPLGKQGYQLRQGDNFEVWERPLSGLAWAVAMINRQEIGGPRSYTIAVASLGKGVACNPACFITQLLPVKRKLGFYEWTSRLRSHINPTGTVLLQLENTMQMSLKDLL
Rango complex inh = qHTS Assay for Inhibitors of Rango (Ran-regulated importin-beta cargo) - Importin beta complex formation; Potency, µM (highest dose often 92.2 µM), inactives show at the highest dose inhibition of complex formation; Importin subunit beta-1 (Homo sapiens), Q14974; Rango CFP/YFP FRET sensor + importin beta, 45 min; hit rate 0.031% among 340,000; AID 540263, 2011; active = rising FRET ratio curve, often small or poorly fitted; inconclusive = mostly compound fluorescence or quenching in the first reads; inactive = flat curves in all reads;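 further: potency means the concentration at half of the fitted maximal effect; 0% = DMSO wells and 100% = buffer wells lacking importin beta; nearly all actives have a fitted effect of over 15% in size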
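Inhibition scored from the CFP 486 nm/YFP 530 nm FRET ratio 45 min after adding 0.125 microM importin beta to 50 nM Rango biosensor preincubated 5 min with compound (room temperature, PBS with DTT, Tween-20, BSA). No-importin wells as positive control.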
Active calls of the source: *; u = inconclusive; x = no result given; & = joins results of further samples.

SMILES	miR-21 FLuc	Rango release inh	GLA inh pH 4.5	Rango complex inh
O=C(COC(=O)c1ccccc1O)Nc1cccc(S(=O)(=O)N2CCCC2)c1	x	18%	x	1.6%
O=C(O)C1CCCCC1C(=O)Nc1ccc(F)cc1F (stereo not given)	-4%	3%	-7	-5.6%
CCc1ccc(C(=O)COC(=O)c2cnccn2)cc1	0%	-7%	-5	3.0%
CCOC(=O)C1CCN(C(=O)COC(=O)c2ccc(=O)n(Cc3ccccc3)n2)CC1	x	-21%	x	0.2%
COc1ccc(OC)c(CNC(=O)C2CCCN(c3nc4ccccc4o3)C2)c1 (stereo not given)	2%	-15%	-11	3.1%
Cc1ccc(NC2(c3nnnn3-c3c(C)cccc3C)CCCCC2)cc1	-1%	-22%	-1	-1.8%
Nc1cccn2c(-c3ccc(Cl)cc3)cnc12	-56%	u	-5	u
C=CCn1c(SCC(=O)N(C)C)nc2cc(C(=O)O)ccc2c1=O	0%	7%	-4	-2.4%
Cc1cccc(C)c1NC(=O)CCCCCNS(=O)(=O)c1ccccc1	0%	3%	3	1.5%
COc1ccc(-c2cc3ccccc3n2CC(O)CNC(CO)(CO)CO)cc1 (stereo not given)	-14%	-4%	-3	0.1%
COc1cc(C2N(c3cccc(Cl)c3)C(=O)C3CCCN32)cc(OC)c1OC (stereo not given)	-3%	2%	-6	0.2%
CCN(c1ccc(OC)cc1)S(=O)(=O)c1csc(C(=O)N2CCCC2)c1	-5%	-15%	x	-0.8%
NC(=O)CSc1nnc(-c2cc(-c3cccs3)nc3ccccc23)o1	-1%	-11%	22	u
C/C=C/C(=O)N1c2ccc(C)cc2C(C)=CC1(C)C	-2%	4%	-4	-2.1%
NC(=O)CC[C@@H]1NC(=O)[C@H](CO)NC(=O)c2cc([N+](=O)[O-])cc(I)c2NCCC[C@@H](C(N)=O)NC(=O)[C@H](Cc2ccc(O)cc2)NC1=O	-6%	u	-1	-0.3%
Cc1nc(N2CCCCC2)nc(N2CCCCC2)c1C=O	-1%	-8%	3	u
O=[N+]([O-])c1cc(Cl)cc(/C=N/Nc2nc3ccccc3s2)c1O	-24%	4%	-4	2.4%
COc1ccc(Nc2nc(N)nc(CSC(=S)N3CCN(C)CC3)n2)cc1	-39%	1%	2	2.3%
COc1ccc(OC)c(NC(=S)NN2CCOCC2)c1	-2%	-12%	3	2.7%
O=C(CCCN1CCC(O)(c2cccc(C(F)(F)F)c2)CC1)c1ccc(F)cc1	x	0%	-9	2.7%
O=C(COC(=O)c1cc(S(=O)(=O)N2CCOCC2)ccc1F)c1ccc[nH]1	0%	-5%	-16	-3.3%
CN(C(=O)c1cc2ccccc2oc1=O)C1(C)CCS(=O)(=O)C1 (stereo not given)	-1%	5%	-20	-0.7%
Cc1ccc(-n2c(SCC3CCCCO3)nnc2-c2ccco2)cc1 (stereo not given)	-1%	1%	-8	-0.1%
CCCNC(=O)c1ccc(COc2ccc(C(C)(C)C)cc2)o1	5%	-8%	x	-0.4%
CCC(=O)C1CCCN(C(=O)c2ccc3nc(-c4cccc(OC)c4)oc3c2)C1 (stereo not given)	-39%	19%	x	2.8%
CS(=O)(=O)N1CCC(C(=O)Nc2c(F)cccc2F)CC1	-5%	-4%	4	-1.9%
COCCn1c(N)c(N(Cc2ccccc2)C(=O)c2oc3ccccc3c2C)c(=O)[nH]c1=O	-8%	24%	6	-1.0%
O=S1(=O)CCC(N=Cc2ccc(-c3ccc(Cl)cc3)o2)C1 (stereo not given)	-12%	-26%	-2	-0.5%
Cc1cc(Cl)c(S(=O)(=O)NC2CCCC2)cc1OCC(=O)NC1CCCCC1	25%	2%	3	4.7%
Cc1ccc(-n2c(-c3ccc(Cl)cc3)c[n+]3c2CCC3)cc1	u	1%	3	0.6%
CCOC(=O)NN=C1CCC(c2ccccc2)CC1 (stereo not given)	-7%	13%	x	0.7%
Cc1ccc(NC(=O)CSc2nc(C)c(C)c(C)n2)cc1S(=O)(=O)N1CCOCC1	x	1%	x	-1.0%
O=C(Cn1c(=O)[nH]n(-c2ccccc2)c1=O)N1CCCc2ccccc21	-2%	20%	0	0.1%
COc1ccc(C(=O)NC2CC(C)(C)NC(C)(C)C2)cc1OC	-2%	-11%	x	-1.8%
CCOC(=O)c1c(NC(=O)CSc2nc3ccccc3s2)sc(C)c1C	-4%	-14%	-5	10%
Cc1ccc(S(=O)(=O)N(C)CCCC(=O)NC(C)(C)CO)cc1	-2%	0%	4	1.9%
Brc1c(C[n+]2ccccc2)nc2ccccn12	-2%	6%	-2	4.2%
CCc1c(O)nc(SCC(=O)Nc2cc(C)on2)n(-c2ccccc2)c1=O	4%	5%	x	-1.5%
C=CCOC(=O)C1=C[C@@H](c2ccccc2)[C@H](CCCO)[C@@H](OCC)O1	25%	10%	1	0.4%
O=C(NCCc1ccc(C(F)(F)F)cc1)C1CC(=O)N(c2ccc3c(c2)OCCO3)C1 (stereo not given)	x	-9%	x	0.1%

Arranged by SMILES length (falling): some entries from above
SMILES	miR-21 FLuc	Rango release inh	GLA inh pH 4.5	Rango complex inh
O=C(Cn1c(=O)[nH]n(-c2ccccc2)c1=O)N1CCCc2ccccc21	-2%	20%	0	0.1%
CN(C(=O)c1cc2ccccc2oc1=O)C1(C)CCS(=O)(=O)C1 (stereo not given)	-1%	5%	-20	-0.7%
CCCNC(=O)c1ccc(COc2ccc(C(C)(C)C)cc2)o1	5%	-8%	x	-0.4%
Brc1c(C[n+]2ccccc2)nc2ccccn12	-2%	6%	-2	4.2%

Next part:
SMILES	miR-21 FLuc	Rango release inh	GLA inh pH 4.5	Rango complex inh
O=C(NC(=S)Nc1ccc(NC(=O)c2cccs2)cc1)c1ccco1	-22%	3%	6	-1.1%
O=c1c(Cc2ccc(Cl)cc2)c(O)ccn1Cc1cccc(Cl)c1	-8%	-6%	-2	0.0%
CC(C)C[C@H](NC(=O)c1nc[nH]c1C(=O)NCC(=O)OC(C)(C)C)C(=O)OC(C)(C)C	15%	0%	-8	0.3%
CCc1ccccc1N=C1S/C(=C/c2ccccc2OCC(=O)N2CCOCC2)C(=O)N1C	6%	13%	-30	2.2%
COc1cc(/C=N/N=C2/NC(=O)C(CC(=O)O)S2)ccc1OCc1cccc(Cl)c1 (stereo not given)	-33%	-20%	6	-2.0%
CCOC(=O)N1CCN(C(=O)CSc2nnc(-c3cccc(Cl)c3)o2)CC1	1%	7%	5	6.4%
COc1ccccc1NC(=O)NC1CC(=O)N(c2ccc3c(c2)OCCO3)C1 (stereo not given)	x	17%	x	0.7%
CCOC(=O)CCNC(=O)c1ccccc1Br	-19%	1%	8	2.0%
Cc1ccc(NC(=O)CN(C)C(=O)CN2C(=O)NC(C)(c3ccccc3)C2=O)cc1 (stereo not given)	-6%	-6%	8	6.5%
COc1cc(-c2nnco2)cc(OC)c1OC	2%	-6%	10	3.7%
O=S(=O)(Cc1ccccc1Cl)CC(O)COc1ccccc1Cl (stereo not given)	-16%	13%	2	1.6%
COC(=O)Cc1c(C)nc2nc(-c3ccccc3)[nH]n2c1=O	0%	3%	-3	-0.1%
Clc1nc(-c2ccccc2)cc(-c2ccc(Br)cc2)n1	x	7%	x	-1.3%
Cc1ccc(C(=O)C(=O)c2ccc(C)c(N)c2)cc1N	-2%	1%	-4	0.5%
COc1ccc(C(CNCC(=O)Nc2ccccc2F)N(C)C)cc1 (stereo not given)	-4%	1%	x	0.7%
COc1ccccc1CC(=O)Nc1ccc(-c2noc(COc3ccc(Br)cc3)n2)cc1	-6%	-6%	-3	3.3%
Cc1cc(-c2onc3ccc(Cl)cc23)ccc1O	-15%	u	x	u
O=C(COC(=O)c1ccccc1O)Nc1ccc(OC(F)F)cc1	-26%	1%	-4	u
C=CCOCCN(C)C1=NS(=O)(=O)c2ccccc21	-1%	12%	-19	-3.3%
O=C(NC(c1ccccc1)c1ccccc1)C1(c2cccs2)CCOCC1	11%	5%	-4	1.0%

Whole records as entered above. Order of screens: miR-21 FLuc	Rango release inh	GLA inh pH 4.5	Rango complex inh
COc1ccccc1NC(=O)NC1CC(=O)N(c2ccc3c(c2)OCCO3)C1 (stereo not given) across the screens: x	17%	x	0.7%
O=c1c(Cc2ccc(Cl)cc2)c(O)ccn1Cc1cccc(Cl)c1 across the screens: -8%	-6%	-2	0.0%

(more compounds)
SMILES	miR-21 FLuc	Rango release inh	GLA inh pH 4.5	Rango complex inh
O=C(COC(=O)CCC(=O)c1ccc(F)cc1)Nc1ccc(F)cc1F	0%	-12%	5	2.3%
O=C(N/N=C/c1cccs1)c1ccc2ccccc2c1	-15%	-2%	x	2.5%
CC(C)C[C@H](NC(=O)c1[nH]cnc1C(=O)N[C@@H](C)c1ccccc1)C(=O)OC(C)(C)C	17%	-7%	u	-1.9%
CC(OC(=O)c1ccc(S(=O)(=O)NCc2ccco2)cc1)C(=O)Nc1ccc(Cl)cn1 (stereo not given)	-1%	-4%	6	u
CSc1nnc(NC(=O)C2CCCCC2)s1	-13%	8%	-7	0.2%
CCc1c(C(=O)Nc2ccc(C)c(C)c2)[nH]c(C)c1C(C)=O	-55%	-9%	x	-5.2%
CC(=O)c1nn(-c2ccc(Br)cc2)cc1C(=O)c1ccco1	-11%	-1%	2	0.8%
O=c1ccc(-c2ccc(S(=O)(=O)Nc3ccccc3Cl)o2)n[nH]1	-13%	18%	x	-0.9%
CCN(Cc1ccccc1)C(=O)CN1C(=O)COc2ccc(S(=O)(=O)N3CCCCCC3)cc21	5%&9%	-1%	x	6.4%
Cn1nc(CC(=O)Nc2ccc3c(c2)CCC3)c2ccccc2c1=O	4%	-15%	2	u
CCCCC(=O)N=c1sc2c(OC)ccc(OC)c2n1C	-1%	2%	-8	-0.8%
Cc1ccc(NC(=O)CN2C(=O)COc3ccc(S(=O)(=O)N4CCOCC4)cc32)cc1F	1%	12%	x	-4.0%
CC[C@H](C)NC(=O)CCCCCn1c(=S)[nH]c2c([nH]c3ccc(OC)cc32)c1=O	1%	10%	-1	4.2%
Cc1cc(C)c2c(N)c(C(=O)NN3CC(=O)N(c4cccc(Cl)c4)CC3=O)sc2n1	1%	-14%	-16	-0.4%
O=C(/C=C/c1ccc(Br)o1)Nc1nccs1	-34%	-19%	8	u
CSc1cccc(CNC(=O)C2CCC(=O)N(CCCN3CCCC3=O)C2)c1 (stereo not given)	2%	0%	x	2.4%
Cc1ccc(N(CN2C(=O)c3ccccc3C2=O)C(=O)c2ccc([N+](=O)[O-])cc2[N+](=O)[O-])cc1	1%	-18%	-8	-1.5%
COc1ccc(/C(N)=N/OC(=O)c2cccc([N+](=O)[O-])c2C)cc1	-21%	0%	6	-2.5%
CCOC(=O)c1sc2nccc(N(C)C)c2c1N=CNOCc1ccccc1	-29%	-7%	-17	-2.1%
O=C(CCCOc1ccc(Cl)cc1)Nc1cccc(C(=O)O)c1	-11%	5%	-9	-2.7%
COc1cccc(CNC(=O)c2ccc(NC(=O)CC3SC(N4CCCC4)=NC3=O)cc2)c1 (stereo not given)	x	-8%	x	-1.5%
CN(C)S(=O)(=O)c1ccc(Cl)c(C(=O)NNC(=O)Cn2ccc(C(F)(F)F)n2)c1	x	-2%	x	0.7%
CCN(C(=O)CSc1ccccn1)C1CCCCC1	x	-6%	x	-1.8%
O=C(CSc1nnc(CNC(=O)C23CC4CC(CC(C4)C2)C3)n1-c1ccc(F)cc1)Nc1ccccc1	-1%	2%	3	0.5%
Brc1ccccc1Cn1c(-c2cscn2)nc2ccccc21	0%	4%	-6	2.5%
Cc1ccc(C(=O)/C=C2\NCC(C)NC2=O)cc1 (stereo not given)	11%	-7%	-3	3.6%
CC1CCCCC1NC(=O)CSc1nc2ccccc2[nH]1 (stereo not given)	10%	-16%	x	0.9%
O=C(CSc1ccccc1C(=O)O)NCC1CCCCC1	-7%	-11%	-8	-2.4%

A portion of the library. The share of hits here may be higher or lower than overall.
